RecA intein inh – Mtb RecA intein splicing inhibition. AID 2221. P9WHJ3. inhibition, %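 (about 9 µM by stock and volumes)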. actives 0.75% (n = 290,000). cell-free RecA intein splicing, fluorescence; in the data active = inhibition above about 30%; inconclusive = no clear call, values can overlap the other calls;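 also: 0% = vehicle wells and 100% = reference inhibitor control wells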
Target sequence (P9WHJ3 whole entry, looked up): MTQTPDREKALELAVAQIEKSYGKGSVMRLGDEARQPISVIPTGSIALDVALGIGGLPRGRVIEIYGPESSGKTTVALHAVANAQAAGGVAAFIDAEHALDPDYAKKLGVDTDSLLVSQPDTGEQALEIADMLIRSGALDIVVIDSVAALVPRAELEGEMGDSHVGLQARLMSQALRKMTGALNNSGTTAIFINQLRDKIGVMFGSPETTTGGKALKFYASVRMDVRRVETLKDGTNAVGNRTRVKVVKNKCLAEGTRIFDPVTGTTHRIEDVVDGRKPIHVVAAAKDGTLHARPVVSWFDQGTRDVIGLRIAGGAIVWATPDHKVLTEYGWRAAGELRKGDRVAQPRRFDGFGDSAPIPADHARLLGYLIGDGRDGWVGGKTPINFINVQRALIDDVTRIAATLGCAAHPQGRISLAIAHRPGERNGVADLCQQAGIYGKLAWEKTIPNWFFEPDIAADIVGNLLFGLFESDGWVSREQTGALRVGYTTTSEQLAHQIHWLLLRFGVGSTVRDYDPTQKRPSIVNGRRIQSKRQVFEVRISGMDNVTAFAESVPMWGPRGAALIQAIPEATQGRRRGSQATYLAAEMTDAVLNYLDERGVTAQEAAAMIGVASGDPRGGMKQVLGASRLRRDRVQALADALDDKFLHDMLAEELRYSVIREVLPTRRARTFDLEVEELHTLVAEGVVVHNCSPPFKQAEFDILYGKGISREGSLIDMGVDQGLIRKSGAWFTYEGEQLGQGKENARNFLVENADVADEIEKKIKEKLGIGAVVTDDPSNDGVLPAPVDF
Arbovirus anti – blocks arbovirus infection; arbovirus infection cell-based antiviral screen; inhibition, % at 10 µM; actives 0.37% (n = 200,000); AID 1251;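 active = inhibition from about 30%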;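 also: bluetongue infection of BSR cells; cell survival read as ATP light after 72 h; 0% = infected wells without compound and 100% = uninfected wells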
YopH inh – inhibitors of Yersinia enterocolitica YopH tyrosine phosphatase; inhibition, %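 (about 10 µM by stock and volumes)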; fluorescence Ex485/Em525; actives 0.16% (n = 140,000);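 active = inhibition of 50% or more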;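 also: controls were vehicle for no effect and minimum signal wells for full effect; inactives centre near -20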
Mtb growth – M. tuberculosis H37Rv growth inhibitors, H37Rv strain (AID 1626) | actives 0.95% (n = 220,000) | one-dose inhibition, % at 10 µM; IC50 in µM for titrated hits | M. tuberculosis H37Rv growth inhibition; higher % means a stronger effect;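 active = confirmed in a dose series; inconclusive = inhibition above 80% but not taken into the dose series; inactive = below 80% or under 30% at every dose of the series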;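 also: bacteria incubated seven days before Alamar blue readout; 0% = bacteria only wells and 100% = bacteria with antibiotic wells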
Mtb betalactam – beta-lactam sensitization of Mtb H37Rv; inhibition, % at 25 µM; actives 0.27% (n = 330,000); AID 434955; M. tuberculosis H37Rv growth with meropenem, percent inhibition; hits of this screen are not shown here;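 active = about 74% or more and at least 40 points above the plate without the antibiotic, then above 30% in a dose series; inconclusive = first-round hits that could not be retested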;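 also: growth measured after seven days incubation then overnight dye step; 0% = bacteria only wells and 100% = bacteria with antibiotic; twin plates without the antibiotic show which effects depend on it; some results filed as inactive read as strong as hits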
Arbovirus anti repeat – further read-out of Arbovirus anti, marked with its call; inhibition, %; measured here: 10K subset replicate screen; many hits read low in the repeat;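 first of two repeat runs on a subset; 0% = infected and 100% = uninfected wells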
Starred values were filed as active, the others as inactive; ? = inconclusive; nt = not tested or not shown; & = joins results of further samples. An excerpt; count on the stated rates, not on these rows.

SMILES	RecA intein inh	Arbovirus anti	YopH inh	Mtb growth	Mtb betalactam	others
CCCOC(=O)COC(=O)c1ccccc1NC(=O)c1ccccc1	3.7	-7	-8	?	98
O=C1c2ccccc2C(=O)N1CCCCSc1nnc2ccccn12	-3.0	3	-13	-16%	-6
Cn1c(SCC(=O)NC2CC2)nnc1C1CC1	-1.0	nt	nt	nt	-9
CC(C)c1ccc(-n2nc3ccc(N)cc3n2)cc1	-4.0	-19	nt	15%	-5
COC(=O)c1sccc1NC(=O)CC1C(=O)NCCN1C(=O)Nc1ccc(F)cc1F (centres undefined)	1.2	nt	nt	-2%	-3
NC(=O)CC(NC(=O)Cc1ccc(Br)cc1)c1ccc(N2CCN(c3ccccc3)CC2)c([N+](=O)[O-])c1 (centres undefined)	1.4	nt	nt	2%	-7
CC1CC(C)(C)NC(=S)O1 (centres undefined)	-2.5&-1.3	2	nt	0%&2%	1&2
Cc1ccc(-n2nnnc2-c2ccccc2)cc1	0.5	-12	nt	12%	5
CC/C(=N/N=C(/CC)c1ccc(O)cc1)c1ccc(O)cc1	0.0	nt	nt	nt	-7
O=C(c1ccco1)c1cc2c(ccc3ccccc32)oc1=O	-26	-6	-32	0%	86
COc1ccc(CC(=O)N2CCOCC2)cc1	-8.3	2	-23	-1%	-22
C/C=C/c1ccc(OCC(=O)OCC2=C(C(=O)OCC)C(C)NC(=O)N2)c(OC)c1 (centres undefined)	-0.4	nt	nt	nt	-1
COc1ccc(NC(=O)CN2C(=O)COc3ccc(S(=O)(=O)N4CCOCC4)cc32)c(OC)c1	0.5	nt	nt	nt	3
COc1cc(NC(=O)COC(=O)CNC(=O)c2cc(C)cc(C)c2)c(C)cc1[N+](=O)[O-]	-0.9	6	-30	9%	-1
COCCNC(=O)CCN1N=C(c2ccccc2)CCC1=O	-1.1	nt	nt	nt	-9

Arranged by molecular weight (high to low): 12 of the compounds above
SMILES	RecA intein inh	Arbovirus anti	YopH inh	Mtb growth	Mtb betalactam	others
NC(=O)CC(NC(=O)Cc1ccc(Br)cc1)c1ccc(N2CCN(c3ccccc3)CC2)c([N+](=O)[O-])c1 (centres undefined)	1.4	nt	nt	2%	-7
COc1ccc(NC(=O)CN2C(=O)COc3ccc(S(=O)(=O)N4CCOCC4)cc32)c(OC)c1	0.5	nt	nt	nt	3
COC(=O)c1sccc1NC(=O)CC1C(=O)NCCN1C(=O)Nc1ccc(F)cc1F (centres undefined)	1.2	nt	nt	-2%	-3
COc1cc(NC(=O)COC(=O)CNC(=O)c2cc(C)cc(C)c2)c(C)cc1[N+](=O)[O-]	-0.9	6	-30	9%	-1
C/C=C/c1ccc(OCC(=O)OCC2=C(C(=O)OCC)C(C)NC(=O)N2)c(OC)c1 (centres undefined)	-0.4	nt	nt	nt	-1
O=C1c2ccccc2C(=O)N1CCCCSc1nnc2ccccn12	-3.0	3	-13	-16%	-6
CCCOC(=O)COC(=O)c1ccccc1NC(=O)c1ccccc1	3.7	-7	-8	?	98
O=C(c1ccco1)c1cc2c(ccc3ccccc32)oc1=O	-26	-6	-32	0%	86
CC(C)c1ccc(-n2nc3ccc(N)cc3n2)cc1	-4.0	-19	nt	15%	-5
Cc1ccc(-n2nnnc2-c2ccccc2)cc1	0.5	-12	nt	12%	5
COc1ccc(CC(=O)N2CCOCC2)cc1	-8.3	2	-23	-1%	-22
CC1CC(C)(C)NC(=S)O1 (centres undefined)	-2.5&-1.3	2	nt	0%&2%	1&2

(cont.)
SMILES	RecA intein inh	Arbovirus anti	YopH inh	Mtb growth	Mtb betalactam	others
CCCc1cc(=O)oc2cc(C)cc(OCC(=O)NC3CCN(Cc4ccccc4)CC3)c12	-2.0	nt	nt	nt	7
COc1ccc(C(=O)NC(=S)N2CCN(c3ccccc3OC)CC2)cc1OC	1.9	nt	nt	nt	7
O=C(NNC(=O)c1ccc(Cl)c(S(=O)(=O)Nc2ccc(Cl)cc2)c1)c1ccc(=O)[nH]c1	0.9	nt	nt	nt	0
COC(=O)c1ccc2nc(C(F)(F)F)[nH]c2c1	3.3	17	-43	nt	-9
Cc1sc2c(c1C)C(=O)/C(=C\Nc1ccccn1)S(=O)(=O)N2C	-3.3	nt	nt	-6%	-1
CCC(C(=O)NCCc1ccc(OC)c(OC)c1)n1nc(C)n2c(cc3occc32)c1=O (centres undefined)	-1.6	nt	nt	nt	5
Cc1cc(C)n2nc(SCCC(=O)NCCc3ccccc3)nc2n1	0.7	3	5	-6%	-6
Cc1cc(NC(=O)C2CCCCC2)nc2c1c(=O)oc1ccccc12	0.7	4	-41	nt	-1
COc1ccc(NC(=O)CSc2nnc(-c3cccs3)n2C)cc1OC	-1.7	1	-33	-6%	-10
NC(=O)c1cc(S(=O)(=O)NCc2cccc(Br)c2)cs1	2.7	nt	nt	nt	-3
Cc1ccccc1NC(=O)C1Cc2ccccc2CN1C(=O)OCc1ccccc1 (centres undefined)	3.3	-4	-25	5%	8
O=C(NC1CCCCC1)C(c1ccccn1)N(C(=O)c1csnn1)c1ccccc1F (centres undefined)	1.0	nt	nt	nt	1
Cc1ccc(Cl)cc1NC(=O)c1cc2ccccc2cc1O	-3.5	nt	nt	12%	2
CSc1nc(Nc2ccc(Cl)cc2)c(C#N)c(=O)[nH]1	-1.9	nt	nt	nt	3
CCN(CC)S(=O)(=O)c1cccc(S(=O)(=O)N2CCCCC2)c1	-1.1	-3	-14	2%	2
Cn1c(C(=O)Nc2ccc(Cl)cc2)cc2cc(Cl)ccc21	-1.0	nt	nt	nt	4
C=CCNC(=S)Nc1cccc2ccccc12	-0.7	-1	-33	-4%	5
Cc1ccc(C)c(N(CC(=O)NCc2ccc3c(c2)OCO3)C(=O)CCC(=O)Nc2ccccn2)c1	6.8	-10	-31	-7%	-10
c1ccc(-c2nc(-c3cccs3)[nH]c2-c2ccccc2)cc1	nt	-8	-32	2%	-4
COC(=O)COc1ccc(NC(=O)Cn2nc(-c3ccccc3)c3ccccc3c2=O)cc1	0.3	3	nt	nt	47
O=C(CN1CCN(CC(=O)Nc2ccccn2)CC1)Nc1ccccn1	-2.1	1	-7	-11%	0	Arbovirus anti repeat=-2
CN(C)CCCn1c(=S)[nH]c2ccccc2c1=O	-3.0	12	nt	-1%	19
Cc1ccsc1C(C(=O)NC(C)(C)C)N(C(=O)c1csnn1)c1ccccc1 (centres undefined)	1.5	9	nt	0%	4
O=C(CN(C(=O)Cn1nnc(-c2cccs2)n1)c1ccc2c(c1)OCCO2)NCC1CCCO1 (centres undefined)	1.5	4	-15	-9%	6
Nc1nc(-c2ccco2)c(-c2ccco2)s1	-0.7	-9	-19	46%	86
O=C(NCCc1ccc(F)cc1)c1cccs1	0.9	7	-5	3%	-1
CC(C)(C)c1ccc(S(=O)(=O)C(C)(C)C)cc1	0.7	6	nt	-5%	-8
O=c1[nH]n2c(=O)c3c([nH]c2c1N=Nc1ccccc1)CCC3	6.5	2	-25	7%	85
O=C(O)c1ccc2nnn(O)c2c1	-1.6	nt	nt	-6%	-1
OCCN1C[C@H](O)[C@@H](O)[C@H](O)[C@H]1CO	-2.8	3	nt	-7%&-1%	-5
CCOC(=O)N1CCC(NC(=O)c2ccc3c(c2)N=C(CC)c2cc(C)ccc2S3)CC1	13	nt	nt	nt	53
CCCCNC(=O)C1CC(c2cccc(F)c2)=NO1 (centres undefined)	1.4	nt	nt	2%	13
CCOc1ccccc1NC(=O)CSc1nc2ccccc2c(=O)n1CC1CCCO1 (centres undefined)	1.3	nt	nt	nt	5
COCCN(C(=O)COC(=O)c1ccc2[nH]c(C)c(C)c2c1)c1c(N)n(Cc2ccccc2)c(=O)[nH]c1=O	-4.7	nt	nt	nt	4
O=S(=O)(c1ccc(Cl)c(S(=O)(=O)N2CCCC2)c1)N1CCCC1	-3.6	-3	nt	-12%	-1
CC1CCN(c2ccc3nnc(CCC(=O)N4CCN(c5ccccc5F)CC4)n3n2)CC1	-8.8	nt	nt	nt	44
CC1CCCN(C(=O)C(=O)Nc2ccc3nc4n(c(=O)c3c2)CCCCC4)C1 (centres undefined)	-2.4	nt	nt	nt	5
CCOC(=O)c1ccc(NC(=O)N2CC3CC(C2)c2cccc(=O)n2C3)cc1 (centres undefined)	1.7	nt	nt	nt	3
Cc1ccc(OCC(=O)N2CCc3ccccc3C2)cc1	1.9	nt	nt	nt	-4
COc1ccc(-c2nn(-c3ccccc3)cc2C(=O)OCC(=O)c2ccc(C)c([N+](=O)[O-])c2)cc1	-1.2	4	-12	20%	9
COCCCn1c(N)c(C(=O)NCc2ccco2)c2nc3ccccc3nc21	-266	nt	nt	3%	-9
COc1cccc2cc(S(=O)(=O)c3ccc(C)cc3)/c(=N/NS(=O)(=O)c3ccc(C)cc3)oc12	0.1	-6	nt	-6%	3
CN(C)c1nc(C(=O)NN)nc(N(C)C)n1	6.3	0	-10	14%	3
COc1cc(OC)cc(C(=O)Nc2ccc(NC(=O)c3ccco3)c(C)c2)c1	8.9	nt	nt	nt	4
O=C(CN(C(=O)CNC(=O)c1ccco1)c1cccc(F)c1)NC1CCCCC1	-10	nt	nt	nt	-11
CCCCC(=O)Nc1ccc(C(=O)NNC(=O)c2cccs2)cc1	-1.2	-3	-16	0%	7
COC(=O)C1=C(C)OC(N)=C(C#N)C1c1cc(OC)c(OCC(N)=O)cc1Cl (centres undefined)	-0.1	-4	5	-1%	-2
Cc1ccccc1CC(=O)N1CCCc2ccccc21	1.3	nt	nt	nt	1
COc1cc(=O)n(C)c2ccccc12	-1.5	-5	-8	-7%	6
CCOC(=O)c1ccc(N=Cc2c(O)n(-c3ccccc3F)c(=S)[nH]c2=O)cc1	-1.7	-7	-25	?	93
Cc1nnc2ccc(-c3cccc(NC(=O)c4ccc(Br)o4)c3)nn12	3.4	-1	nt	0%	10
COc1ccc(C(=O)c2ccc(OC)c(OC)c2)cc1	0.5	-13	-16	-3%	-5
Cc1ccc(C(C)C)cc1S(=O)(=O)Nc1cccnc1	0.0	nt	nt	nt	1
COc1ccc(/C=C(\C#N)C(=O)OCCNC(=O)c2ccncc2)cc1	-1.5	4	nt	-10%	-7
CC(C)(C)c1ccc(-c2nc(-c3ccncc3)no2)cc1	7.4	9	-4	21%	98
CCN(CC)CCNC(=O)c1ccc(NC2=NC3CS(=O)(=O)CC3S2)cc1 (centres undefined)	-3.0	3	-6	10%	-5
CCN(CC)S(=O)(=O)c1ccc(NS(=O)(=O)c2cccc(C)c2)cc1	-4.5	-5	-5	-4%	0
O=C(CN1CCN(C/C=C/c2ccccc2)CC1)Nc1ccc(F)cc1F	-0.8	23	nt	-1%	4
CCCCN(C(=O)CN1C(=O)C2CCCCC2C1=O)c1c(N)n(Cc2ccccc2)c(=O)[nH]c1=O (centres undefined)	-4.4	nt	nt	nt	-6
COC(=O)c1ccc(CN2C(=O)C3CCCCC3C2=O)o1 (centres undefined)	-1.9	4	nt	-3%	0
Continued.
SMILES	RecA intein inh	Arbovirus anti	YopH inh	Mtb growth	Mtb betalactam	others
Cc1ccc(NC(=O)CN(C)CC(=O)NC2CCCc3ccccc32)cc1 (centres undefined)	4.5	nt	nt	2%	-5
O=C(COc1ccccc1C(=O)O)Nc1ccc(SC(F)F)cc1	0.8	4	nt	4%	-4
C[C@@H](CO)NC(=O)c1ccc2c3n(nc2c1)-c1ccccc1CO3	-2.2	nt	nt	-6%	-2
NS(=O)(=O)c1cccc(NC(=O)COC(=O)Cn2cnc3ccccc32)c1	-15	nt	nt	4%	-2
CCc1ccc(-c2cc(C)no2)cc1S(=O)(=O)NC(C)Cc1ccco1 (centres undefined)	-3.0	nt	nt	nt	3
CSCCC(NS(=O)(=O)c1ccc2c(c1)OCCO2)C(=O)N(C)Cc1ccc(F)cc1 (centres undefined)	5.5	nt	nt	nt	-12
CN(CC(=O)Nc1ccc(Cl)c(C(F)(F)F)c1)C(=O)/C=C/c1ccco1	-0.2	8	-26	-1%	8
COc1cccc(C(=O)c2c(C)c(CCC#N)n3ccccc23)c1OC	-2.0	-4	nt	6%	0
Cc1noc(C)c1CCC(=O)NC1CCCN(Cc2ccc(CC(C)C)cc2)C1 (centres undefined)	1.6	nt	nt	nt	8
O=C(c1cc(-c2cccc(Cl)c2)on1)N1CCN(c2ccc(F)cc2)CC1	0.4	nt	nt	nt	2
CCOC(=O)c1[nH]c(C)c(/C(O)=C2\C(=O)C(=O)N(CCN(C)C)C2c2ccc(C)o2)c1C (centres undefined)	-0.5	-17	-23	-5%	?
CC(C)C[C@H](NC(=O)NCc1ccccc1Cl)C(=O)O	-0.9	9	-42	-4%	2
Cc1cccc(N(CC(=O)NCCSc2ccccn2)S(=O)(=O)c2ccccc2)c1	-1.1	3	-20	1%	1
COc1cc(NC(=S)NCCO)c(OC)cc1Cl	-1.0	nt	nt	-9%	-7
